Compound activity deposited in PubChem by Broad Institute.
BJeLR viab HTS: BJeLR cell viability reduction | BJeLR fibroblasts viability, CellTiterGlo ATP luminescence, 48 h; HRASV12, hTERT and SV40 LT/ST transformed | viability loss activity score, % (no concentration beside the values) | 0.64% of 30,000 active | AID 2275; in the data active = viability loss activity score above about 50%; about a fifth of its hits are not listed in these tables;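 also: higher score means fewer live cells and less ATP luminescence; stock transfer was 50 or 100 nL into about 30 µL; 0% = vehicle wells and 100% = a reference killing control; one replicate is shown; the record names a cut of 85%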
A1 inhib: A1 inhibition. MEF A1-2A-BIM cells, caspase-Glo luminescence, 3 h; percent of clofoctol signal, DMSO as zero. caspase activation, % (concentration not given with the values). 0.51% of 21,000 active. AID 2241;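 active = most replicate scores above 10, or exactly half above 10 with mean activity above 10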;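 also: effector caspase 3 and 7 activity cleaving a DEVD luciferin substrate; 50 nL library stock added to about 30 µL; numbers are from one replicate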
Active calls of the source: *; / = not tested or not shown. These rows are one share of the data, so the mix of outcomes need not match the whole.

SMILES | BJeLR viab HTS | A1 inhib
CC(C)C/C(=N\O)c1cn(C)c2ccccc12 | -6.0 | /
c1ccc2c(c1)cc1ccc3cccc4ccc2c1c34 | -4.2 | 0.8
C=CCC1(C(C)CCC)C(=O)NC(=S)NC1=O (configuration not stated) | 5.4 | 0.5
OC(Cc1ccncc1)C(Cl)(Cl)Cl (configuration not stated) | 2.3 | -1.0
CC(=O)O[C@H]1C[C@H](O[C@H]2[C@@H](O)C[C@H](O[C@H]3[C@@H](O)C[C@H](O[C@H]4CC[C@@]5(C)C(CCC6C5C[C@@H](O)[C@]5(C)[C@@H](C7=CC(=O)OC7)CC[C@]65O)C4)O[C@@H]3C)O[C@@H]2C)O[C@H](C)[C@H]1O[C@@H]1O[C@H](CO)[C@@H](O)[C@H](O)[C@H]1O (some centres not stated) | 109* | 0.3
CC(C)N(C(=O)SCC(Cl)=C(Cl)Cl)C(C)C | 11 | 0.7
CNC(=O)N(C)c1nnc(C(C)(C)C)s1 | -2.3 | 0.3
Clc1ccc(CN2CCNCC2)cc1 | 3.8 | /
CCOC(=O)C1=C(N)Oc2c(c(=O)oc3ccccc23)C12C(=O)N(CC(=O)OC)c1ccccc12 (configuration not stated) | -4.0 | 1.0
N#CC1(P(=S)(c2ccccc2)c2ccccc2)CCCC1 | -0.9 | -1.5
O=c1c2ccccc2[nH]c(=S)n1-c1cc(C(F)(F)F)cc(C(F)(F)F)c1 | -1.1 | 1.0
Cc1cc(Br)c(NC(=O)C2C(C)(C)C2(C)C)c(Br)c1 | -2.1 | 0.1
COc1cc(C(=O)O[C@H]2[C@@H]3C=CO[C@@H](O[C@@H]4O[C@H](CO)[C@@H](O)[C@H](O)[C@H]4O)[C@@H]3[C@@]3(CO)O[C@@H]23)ccc1O | -2.0 | -0.3
CCCCOC(=O)c1ccccc1C(=O)OCc1ccccc1 | -7.9 | 0.1
COCc1cc(OC(=O)N(C)C)nc(-c2ccncc2)n1 | 0.8 | 0.0
COc1ccc2c(c1)[C@]13CCCC[C@H]1[C@H](C2)N(C)CC3 | -2.3 | 0.7
COc1ccc(/C=C/C(=O)C2C(=O)NC34CCCCC3C2c2ccccc2O4)c(OC)c1OC (configuration not stated) | -7.5 | /
CCCCC/C=C\C/C=C\C/C=C\CCCCCCC(=O)NCCO | 4.4 | 0.1
CN1C2C[C@H](OC(=O)[C@H](CO)c3ccccc3)C[C@H]1[C@@H](O)C2 | -3.1 | -0.3
C=CC(C)(C)[C@@]12C[C@H]3C(=O)N/C(=C\c4cnc[nH]4)C(=O)N3[C@@H]1Nc1ccccc12 | -4.0 | -0.1
CO[C@H]1C=C2CCN(C)[C@H]2C2c3cc4c(cc3C(=O)O[C@@H]21)OCO4 (some centres not stated) | 0.8 | -0.6
Cc1ccc(CSc2nnc(OC(=O)N(C)C)n2-c2cccc(Cl)c2)cc1 | 5.3 | 0.0
Clc1ccc(C(OCCN2CCCCC2)c2ccccc2)cc1 (configuration not stated) | 3.5 | -0.6
COc1ccc2[nH]c3c(c2c1)CCN=C3C | -3.0 | 0.6
COC1CC(OC2CCC3(C)C(CCC4(O)C3CC(OC(=O)c3ccccc3)C3(C)C(O)(C(C)=O)CCC43O)C2)OC(C)C1OC1CC(OC)C(OC2OC(C)C(O)C(OC)C2O)C(C)O1 (configuration not stated) | -7.3 | -0.5

Ordered by formula weight (ascending): some entries from above.
SMILES | BJeLR viab HTS | A1 inhib
COc1ccc2[nH]c3c(c2c1)CCN=C3C | -3.0 | 0.6
CC(C)N(C(=O)SCC(Cl)=C(Cl)Cl)C(C)C | 11 | 0.7
CCCCOC(=O)c1ccccc1C(=O)OCc1ccccc1 | -7.9 | 0.1
O=c1c2ccccc2[nH]c(=S)n1-c1cc(C(F)(F)F)cc(C(F)(F)F)c1 | -1.1 | 1.0
COc1ccc(/C=C/C(=O)C2C(=O)NC34CCCCC3C2c2ccccc2O4)c(OC)c1OC (configuration not stated) | -7.5 | /

(listing goes on)
SMILES | BJeLR viab HTS | A1 inhib
CN1C(=O)CN=C(c2ccccc2)c2cc(Cl)ccc21 | 9.7 | 0.8
C=CCN1CC[C@]23c4c5ccc(O)c4O[C@H]2C(=O)CC[C@@]3(O)[C@H]1C5 | 5.1 | -0.4
c1cncc(C2N=C(c3cnccn3)NN2)c1 (configuration not stated) | -4.2 | -3.2
CCOP(=S)(OCC)SCn1c(=O)oc2cc(Cl)ccc21 | 2.0 | -0.4
CC1(C)C(=O)C=C[C@@]2(C)C1C(=O)C(=O)[C@]1(C)C2CC[C@@]2(C)[C@H](c3ccoc3)C[C@H]3O[C@]321 (some centres not stated) | 27 | -1.1
C=C1[C@@]23C(=O)O[C@H](C)[C@]24O[C@@]2(C(=C)[C@]5(C=CC(=O)OC5(C)C)CC[C@]32C)[C@H](O)[C@@]1(C)OC4=O | 0.6 | -0.7
CC12CCC3C(CC=C4CC(O)CCC43CO)C1CCC2OC(=O)c1ccccc1 (configuration not stated) | 3.9 | -1.4
CO[C@H](C)C(O)(C(=O)OCC1=CCN2CC[C@H](O)[C@@H]12)C(C)C (some centres not stated) | 5.0 | -0.6
CCCC12CNCC(C)(CNC1)C2=O | -1.2 | -0.4
COc1ccc2c(c1O)-c1c(OC)c(OC)cc3c1[C@H](C2)N(C)CC3 | -3.2 | 0.6
O=C(c1cccn2c(=O)c3cc(Br)ccc3nc12)N1CCC2(CC1)OCCO2 | 0.1 | 0.4
Cc1ccc(CN(Cc2ccccc2)C(=S)NCC(=O)N2CCC3(CC2)OCCO3)o1 | 1.0 | 0.2
O=C(CC[N+](=O)[O-])OC[C@H]1O[C@@H](O)[C@H](OC(=O)CC[N+](=O)[O-])[C@@H](OC(=O)CC[N+](=O)[O-])[C@@H]1OC(=O)CC[N+](=O)[O-] | 2.3 | -0.6
Cn1c(CCN)nc2ccccc21 | 3.1 | 1.8
CC(C)[C@@]1(NC(=O)[C@@H]2CC3c4cccc5[nH]cc(c45)C[C@H]3N(C)C2)O[C@@]2(O)[C@@H]3CCCN3C(=O)[C@H](Cc3ccccc3)N2C1=O (some centres not stated) | -5.1 | -0.5
c1ccc2c(N3CCNCC3)cccc2c1 | -5.7 | 0.3
C=C1C([C@]2(C)C(CC(=O)OC)[C@@](C)(COC(C)=O)OC(=O)C[C@@H]2OC(C)=O)[C@@H](OC=O)[C@H](OC(=O)C(OC(C)=O)C(C)CC)[C@@]2(C)[C@H](c3ccoc3)CC(=O)C12O (some centres not stated) | -6.2 | -0.1
O=c1cc(O)c2ccccc2o1 | -5.4 | 0.4
CCCN(CCC)CCc1ccc(O)c(O)c1 | -0.2 | -0.5
O=c1c2ccccc2[nH]c(=S)n1-c1ccc(Cl)c(Cl)c1 | 3.1 | -3.8
CC(CO)NC(=O)C1C=C2c3cccc4[nH]cc(c34)CC2N(C)C1 (configuration not stated) | 1.6 | -0.6
CCOc1ccccc1C1NC(=S)NC(c2ccccc2OCC)C12C(=O)NC(=O)NC2=O (configuration not stated) | 0.1 | /
CCCN(CCC)C1CCc2ccc(O)cc2C1 (configuration not stated) | -6.5 | -1.4
CCN1CC2(COC)CCC(O)C34C5CC6C(OC)CC(O)(C5C6O)C(C(OC)C23)C14 (configuration not stated) | 2.5 | 0.2
Cc1cccc(C)c1OC(=O)Cc1ccccc1 | -0.1 | -0.5
Following part
SMILES | BJeLR viab HTS | A1 inhib
CC(=O)NC1C(OC2OC(CC(O)C3OC(n4ccc(=O)[nH]c4=O)C(O)C3O)C(O)C(O)C2NC(=O)/C=C/CCCCCCCCCC(C)C)OC(CO)C(O)C1O (configuration not stated) | 9.7 | 3.1
C=C(C)[C@H]1O[C@H]2CC[C@@]3(C)[C@@](O)(CC[C@H]4[C@@H]5OC(C)(C)[C@H]6C[C@@H]7C(=C)Cc8c(Cl)cc9[nH]c(c5c9c8[C@@]76O)[C@@]43C)[C@]23O[C@@H]3[C@H]1O | -5.7 | 3.0
O=C(c1cc(-c2cccnc2)nc2ccccc12)N1CCC2(CC1)OCCO2 | -2.2 | 0.3
CN1C(=O)c2ccccc2NC(=O)C1Cc1ccccc1 (configuration not stated) | -2.4 | 0.3
COc1ccc2c(c1)[nH]c1c(C)nccc12 | 13 | -0.6
c1ccc(C2CC2)c(OCC2=NCCN2)c1 | 4.0 | 0.7
CCc1ccc(CN2CCN(Cc3cccc(OC)c3)CC2)cc1 | -0.4 | -1.1
CC(=O)Nc1ccc(Cc2ccc(NC(C)=O)cc2)cc1 | 2.0 | 0.3
CSc1nc2ccccc2c(=O)n1-c1cccnc1 | -0.8 | 0.0
O=C1CC=C2C3CC4N(CCC45c4ccccc4N1C25)C/C3=C/CO (configuration not stated) | -17 | 2.4
COc1ccc(-n2c(C)nc3ccccc3c2=O)cc1 | 0.2 | 0.6
O=C(c1cc2ccccn2n1)N1CCC2(CC1)OCCO2 | 4.1 | /
Clc1cccc(Cl)c1NC1=NCCS1 | -2.6 | 0.9
C=C[C@H]1CN2CC[C@H]1C[C@@H]2[C@H](O)c1ccnc2ccccc12 | -2.2 | 1.2
CC=C1CN2C3CC1C1(C(=O)OC)C2CC2(c4ccccc4N(C)C32)C1O (configuration not stated) | 1.1 | -0.1
COc1ccc(Cl)cc1NC1=NCC(C)S1 (configuration not stated) | -0.5 | -0.2
COc1cc(C(=O)OC2CC3CCC(C2)N3)ccc1O (configuration not stated) | 0.5 | 0.7
CCNc1nc(Cl)nc(NCC)n1 | 0.1 | 0.0
Cc1c2cnn(CC(=O)N3CCC4(CC3)OCCO4)c(=O)c2c(C)n1Cc1ccccc1F | -1.3 | 0.3
C/C=C(/C)C(=O)OC1CCN2CC=C(COC(=O)C(O)(C(C)O)C(C)(C)O)C12 (configuration not stated) | -1.6 | -0.5
CN1C(=O)COc2c(C(=O)NC3CN4CCC3CC4)cc(Cl)cc21 (configuration not stated) | -1.8 | -0.4
CC(C)(c1ccccc1)c1ccc(O)cc1 | 0.8 | -0.1
COc1ccccc1CCNCc1ccccc1C(F)(F)F | 0.3 | -0.1
NCCC1COc2ccccc2O1 (configuration not stated) | -2.2 | /
Cc1ccc(CN(C)C)c(OC(=O)N(C)C)c1 | 0.7 | -0.3
The results go on:
SMILES | BJeLR viab HTS | A1 inhib
C[C@]12C=CC(=O)C=C1CC[C@@H]1C2CC[C@]2(C)C(=O)CCC12 (some centres not stated) | -5.2 | 0.0
CC(C)N1C(=O)c2ccccc2NS1(=O)=O | -4.7 | 0.5
CC[C@@]12CCCN3CC[C@]4(c5cccc(OC)c5N(C(C)=O)[C@@H]4CC1)[C@H]32 | 3.2 | -0.4
COc1cc2c3cc1Oc1cc(ccc1O)C[C@@H]1c4c(cc(OC)c(O)c4Oc4cccc(c4)C[C@@H]3N(C)CC2)CC[N+]1(C)C | -0.2 | -0.5
COC(=O)CC1=C(C(=O)OC)C2(C(=O)Nc3ccccc32)C(C(=O)OC)=C(N)O1 (configuration not stated) | -0.2 | 0.3
COc1cc(C(=O)OC2C[C@H]3CC[C@@H](C2)N3C)ccc1O (some centres not stated) | 3.3 | 0.3
O=c1cccc2n1CC1CC2CN(CCO)C1 (configuration not stated) | -1.1 | -1.1
COc1ccc2[nH]cc(CCNCc3ccc(Br)cc3)c2c1 | -2.6 | 0.9
COc1ccc2c3c4n(c2c1)[C@@H](C=C(C)C)OOC(C)(C)C[C@@H]4N1C(=O)[C@@H]2CCCN2C(=O)[C@]1(O)[C@H]3OCC=C(C)C | -1.0 | -0.3
COC(=O)c1ccc(OP2(=O)COc3ccccc3OC2)cc1 | -1.8 | -0.2
CC(C)(C)c1nc2ccccc2c(=O)n1-c1ccc(F)cc1F | 7.4 | 0.0
COc1ccc2[nH]cc(CCN)c2c1 | -6.1 | -0.2
C=C1C(=O)O[C@@H]2[C@H]3C(=C)[C@@H](O)C[C@H]3C(=C)C[C@@H](O)[C@@H]12 | -3.9 | 0.5
CCCN(C/C=C/I)C1CCc2ccc(O)cc2C1 (configuration not stated) | -1.8 | 0.0
C=CC(C)(C)[C@]12C=C(OC)C(=O)N3/C(=C/c4cnc[nH]4)C(=O)N[C@@]31N(OC)c1ccccc12 | 0.3 | 0.1
CCOC(=O)CN1C(=O)CC(C[C@@H](O)C2C[C@@H](C)C[C@H](C)C2=O)CC1=O (some centres not stated) | 2.4 | 1.0
C/C=C(/C)C(=O)O[C@H]1C(C)=C2[C@H]([C@@H]1OC(=O)CCCCCCC)[C@@](C)(OC(C)=O)C[C@H](OC(=O)CCC)[C@@]1(O)[C@H]2OC(=O)[C@@]1(C)O | 33 | 12*
C=C[C@H]1CN2CC[C@H]1C[C@H]2[C@H](O)c1ccnc2ccccc12 | -5.2 | -0.4
Cc1nccc2c1[nH]c1ccccc12 | 2.8 | -0.2
O=c1ccc2cc(OC3O[C@H](CO)[C@@H](O)[C@H](O)[C@H]3O)c(O)cc2o1 (some centres not stated) | 1.6 | 0.2
Cn1cnc(-n2oo2)c1C#N | -1.2 | 0.6
CCOC(=O)c1[nH]c2ccc(OC)cc2c1C(SCC(=O)O)c1ccc(C(F)(F)F)cc1 (configuration not stated) | 9.1 | /
CC(/C=C/[C@@]1(C)[C@H](C)CCC(=O)[C@@H]1C)=C\Cc1c(O)c(Cl)c(C)c(C=O)c1O | 26 | -1.1
OC1CCCCC1N1CCC(c2ccccc2)CC1 (configuration not stated) | 5.6 | 0.9
O=C(CSC(c1ccccc1)c1ccccc1)Nc1ccccc1 | -4.6 | 0.1

Pulled one by one from the list above:
SMILES | BJeLR viab HTS | A1 inhib
OC(Cc1ccncc1)C(Cl)(Cl)Cl (configuration not stated) | 2.3 | -1.0
O=c1cccc2n1CC1CC2CN(CCO)C1 (configuration not stated) | -1.1 | -1.1

Taken from above.
COc1ccc2[nH]cc(CCNCc3ccc(Br)cc3)c2c1 in BJeLR viab HTS shows -2.6
CN1C(=O)COc2c(C(=O)NC3CN4CCC3CC4)cc(Cl)cc21 (configuration not stated) in BJeLR viab HTS shows -1.8
CN1C(=O)CN=C(c2ccccc2)c2cc(Cl)ccc21 in BJeLR viab HTS shows 9.7
C=CC(C)(C)[C@]12C=C(OC)C(=O)N3/C(=C/c4cnc[nH]4)C(=O)N[C@@]31N(OC)c1ccccc12 in BJeLR viab HTS shows 0.3
